# High-throughput results (PubChem BioAssay)
# gsp antagonist – antagonists of gsp mutant (McCune-Albright syndrome); AID 624288; gsp-mutant cells, cAMP HTRF, 30 min; control for the full effect not named in the record; 0.4% of 340,000 active; Potency, µM (doses to about 76.9 µM), inactives show top-dose activity change, negative = inhibition, usual class: inhibitors; active = falling curve of any shape with a large fitted effect; inconclusive = falling curve, mostly with a smaller effect; inactive = flat or rising curve; cell line not stated here;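 also: intracellular cAMP measured with PDE inhibitor Ro 20-1724 present during compound exposure; potency is read from the fitted curve at half-maximal effect; % is scaled to controls: 0 for no effect and ±100 for the full control effect; nearly all actives have a fitted effect of over 65% in size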
#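 G418-selected cells were plated in DMEM/10% FBS for 16-24 h at 37C, then treated with compounds plus the PDE inhibitor […] (300 uM solution added) for 30 min at 37C. Intracellular cAMP was measured by HTRF after 30 min lysis at room temperature.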
# ClpP mod – qHTS Assay for Activators of ClpP; 1.9% of 340,000 active; purified B. subtilis ClpP, FRET peptide cleavage, 20 min; Potency, µM (top dose mostly 57.5 µM), for the others: at the highest dose activity change, negative = active; AID 651965, 2013; active = well fitted falling curve with a large enough effect; inconclusive = small, poorly fitted or top-dose-only effect; inactive = no such curve, though single readings can be large or run the other way; also: potency is read from the fitted curve at half-maximal effect; the source files actives as falling curves though it sought activators and does not explain the sign; nearly all actives have a fitted effect of over 65% in size; many hits overshoot -100%
# Target sequence (P80244 whole entry, looked up): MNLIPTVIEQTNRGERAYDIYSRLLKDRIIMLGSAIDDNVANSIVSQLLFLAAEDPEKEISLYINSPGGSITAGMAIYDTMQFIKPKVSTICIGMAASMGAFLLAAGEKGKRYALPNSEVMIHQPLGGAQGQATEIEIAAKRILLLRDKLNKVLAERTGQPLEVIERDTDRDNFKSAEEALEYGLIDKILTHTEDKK
#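 Buffer: 100 mM Tris/HCl pH8, 100 mM KCl, 0.05% low protease BSA, 2.5% glycerol, 0.01% Tween-20. ClpP 10 microg/mL final; 20 min RT; delta FRET normalized to ADEP and DMSO controls.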
# Menin MLL FP FL – displaces fluorescein MLL peptide from human menin; Fluorescence polarization, fluorescein-MLL peptide displacement from menin; FP activity change, % at 61.4 µM; 290,000 tested, under 10 active; inconclusive = falling polarisation curve, or a change in total fluorescence; inactive = total fluorescence flat and polarisation flat or rising; no compound was filed as active; the % refers to the polarisation; negative = inhibition;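 also: % of control where 0% means no effect; inhibitors lower the polarisation; unlabelled MLL peptide was the positive control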
# D2 PAM – potentiates the human D2 dopamine receptor allosterically; P14416; DiscoveRx D2 beta-arrestin cells, luminescence, 90 min; 100% = 57 uM dopamine signal; potentiation, % (no concentration beside the values); 0.23% of 360,000 active; active = potentiation of 50% or more; inconclusive = 30% to 50%; inactive = 30% or less;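 also: compound concentration not given in the record; tested on top of an EC20 dose of dopamine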
# Target sequence (P14416 whole entry, looked up): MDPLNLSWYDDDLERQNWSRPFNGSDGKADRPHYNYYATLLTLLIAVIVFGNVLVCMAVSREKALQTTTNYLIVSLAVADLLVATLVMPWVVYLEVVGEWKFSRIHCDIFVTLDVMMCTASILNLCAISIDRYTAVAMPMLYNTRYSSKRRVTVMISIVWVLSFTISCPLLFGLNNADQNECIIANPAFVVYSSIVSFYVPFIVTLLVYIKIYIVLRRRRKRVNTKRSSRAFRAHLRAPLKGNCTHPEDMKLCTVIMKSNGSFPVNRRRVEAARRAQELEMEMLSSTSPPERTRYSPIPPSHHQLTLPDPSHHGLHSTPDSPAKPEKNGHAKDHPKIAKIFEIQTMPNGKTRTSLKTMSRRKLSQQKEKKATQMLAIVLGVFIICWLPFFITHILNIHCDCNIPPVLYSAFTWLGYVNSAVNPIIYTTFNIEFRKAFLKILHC
#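 PathHunter D2 cells, attached overnight at 37 deg C, received compound in DMSO plus dopamine at EC20 (50 nM final) for 90 min at 37 deg C. Beta-arrestin recruitment was read as luminescence after 1 h with detection reagent at ambient temperature.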
# TRPV1 PAM – enhances activation of the human vanilloid receptor TRPV1. potentiation, % at 8.33 µM. TRPV1-expressing cells, Fluo-8 calcium influx, capsaicin EC20 potentiation; host cell line not named in the record; control for the full effect not named in the record. 0.02% of 320,000 active. AID 540277. Q8NER1; active means potentiation above 80%; inconclusive means 30% to 80%; inactive means below 30%; also: 0% is about no effect
#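 Fluo-8 calcium influx in TRPV1-expressing cells, kinetic read (ex 480/em 520 nm). Compound added and read 3 min for agonist activity, followed by capsaicin at EC20 final and 2 min further read for enhancement.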
# gsp agonist – agonists of gsp mutant (McCune-Albright syndrome); 0.13% of 340,000 active; gsp mutant cells, cAMP HTRF, 30 min; control for the full effect not named in the record; Potency, µM (doses to about 76.9 µM), without a hit: at the top dose activation (cAMP increase), actives largely listed as activators; active = well fitted activation curve with a large enough effect; inconclusive = small, poorly fitted or top-dose-only effect, or another doubt; inactive = no such curve, though single readings can be large or run the other way; cell line not stated here;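 also: phosphodiesterase inhibitor Ro 20-1724 added with compounds to block cAMP breakdown; potency is read from the fitted curve at half-maximal effect; nearly all actives have a fitted effect of over 60% in size; about a fifth of the inactives were tested at one dose only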
#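 Cells stably selected in G418 were plated at 2000/well, grown 16-24 hr, then given compounds in DMSO with the PDE inhibitor […] (300 uM solution added) for 30 min at 37C; cAMP was read by HTRF.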
# Sfp inh – blocks B. subtilis Sfp PPTase activity. Q9F4F7. Biochemical Sfp PPTase activity, qHTS. Potency, µM, inactives show max response, negative = inhibition, actives largely listed as inhibitors. 3.5% of 310,000 active. AID 1490; active = well fitted inhibition curve with a large enough effect; inconclusive = small, poorly fitted or top-dose-only effect, or another doubt; inactive = no such curve, though single readings can be large or run the other way;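 also: the enzyme is Sfp with the accession as filed and its product quenches rhodamine fluorescence; potency is read from the fitted curve at half-maximal effect; 0% = enzyme reaction without inhibitor and -100% = no enzyme wells; top concentration of the series not given in the record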
#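 Step 1, compound plus 15 nM Sfp-PPTase, 15 min, room temperature. Step 2, add rhodamine-CoA (5 uM) and BHQ-2-YbbR (12.5 uM). Step 3, read 525/598 nm fluorescence at 0 and 30 min.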
# An asterisk follows results filed as active; ? = inconclusive; nt = no result given; & = joins results of further samples; [ ] = remark or other dose.
1. CCOc1cccc(N(C(=O)Cc2cccs2)C(C(=O)NC2CCCCC2)c2cccn2C)c1 (stereo unspecified)
2. CCOC(=O)c1cc(/C(C)=N/OC(=O)c2ccc(Cl)cc2)on1
3. O=C(Cc1ccc(Cl)cc1)NCCS(=O)c1ccc(Cl)cc1 (stereo unspecified)
4. O=C(CNC(=O)c1ccc(Cl)cc1Cl)OCC(=O)N1CCCC1=O
5. CCOC(=O)N1CCN(C(=O)CSc2nc3c([nH]c4ccccc43)c(=O)n2CC)CC1
6. CC(=O)OCC1=C(C(=O)O)N2C(=O)C(NC(=O)c3ccc(COc4ccc(Cl)cc4)o3)C2SC1 (stereo unspecified)
compound no. | 1 | 2 | 3 | 4 | 5 | 6
gsp antagonist | -24% | 9% | -6% | -14% | 13% | 6%
ClpP mod | 2.1% | 1.3% | -0.4% | 1.3% | -4.7% | -3.8%
Menin MLL FP FL | 0.3 | 1.9 | 1.8 | nt | -2.3 | -0.1
D2 PAM | -5 | 4 | -8 | 2 | 11 | -4
TRPV1 PAM | -7 | nt | -4 | -3 | 10 | -2
gsp agonist | -10% | 1%[15.4 µM] | -27% | -7% | 1% | 0%[15.4 µM]
Sfp inh | 8% | 8% | 12% | nt | 6% | -16%

7. Cc1ccc(N(Cc2ccccc2O)C(=O)c2ccccc2F)cc1
8. CCOC(=O)c1[nH]c2ccc(Br)cc2c1NC(=O)CCN1CCCCC1
9. COc1ccc(S(=O)(=O)NN(C)C)cc1N(C)S(=O)(=O)c1ccc(Cl)cc1
10. CCOc1ccc2ccccc2c1/C=N/NC(=O)c1ccc(C)nc1
11. COc1ccccc1CN(C)C(=O)c1cnc(C)cn1
12. O=C(O)c1cccc(NS(=O)(=O)c2ccc3c(c2)C(=O)c2ccccc2C3=O)c1
compound no. | 7 | 8 | 9 | 10 | 11 | 12
gsp antagonist | 0% | nt | 2% | -7% | 10% | 10%
ClpP mod | -1.8% | nt | -11% | 1.6% | 1.9% | -1.2%
Menin MLL FP FL | -5.3 | -0.6 | 6.0 | 5.2 | -3.6 | 2.0
D2 PAM | -4 | nt | -21 | -17 | -4 | -2
TRPV1 PAM | 2 | -17 | 3 | 3 | 4 | nt
gsp agonist | -20% | nt | -38%[inhibitor] | 26% | 25% | 27%
Sfp inh | 8% | 18% | 22% | -11% | 2% | -10%

13. CC(=O)NC(Cc1ccccc1)C(=O)NC(Cc1ccccc1)C(=O)O (stereo unspecified)
14. OC(CNCC1CCCO1)COc1ccc(OCC(O)CNCC2CCCO2)cc1 (stereo unspecified)
15. COc1cc(Cl)c(C)cc1NC(=O)CN1CCN(C(=O)c2cccs2)CC1
16. Cc1ccc(C(=O)Nc2ccc3nccnc3c2)cc1
17. O=C(Cc1ccc(F)cc1)Nc1nnc(SCC(=O)N2CCCCC2)s1
18. CCOC(=O)C1(Cc2cccc(OC)c2)CCN(Cc2ccc(OC)c(OC)c2)CC1
compound no. | 13 | 14 | 15 | 16 | 17 | 18
gsp antagonist | -3% | 6% | nt | 1% | -2% | 12%
ClpP mod | 0.5% | -2.6% | 0.5% | ? | -1.7% | nt
Menin MLL FP FL | 9.1 | 13 | nt | 3.0 | -1.6 | -3.1
D2 PAM | -7 | -17 | -31 | -14 | -2 | -13
TRPV1 PAM | -10 | 26 | nt | nt | -5 | 3
gsp agonist | 3% | 4% | -79%[inhibitor] | -11% | -4%[15.4 µM] | -1%
Sfp inh | 7% | 9% | nt | -1% | 11% | -11%

# Single records (already shown):
# CCOc1ccc2ccccc2c1/C=N/NC(=O)c1ccc(C)nc1 is entered as gsp antagonist = -7%; ClpP mod = 1.6%; Menin MLL FP FL = 5.2; D2 PAM = -17; TRPV1 PAM = 3; gsp agonist = 26%; Sfp inh = -11%
# OC(CNCC1CCCO1)COc1ccc(OCC(O)CNCC2CCCO2)cc1 (stereo unspecified) is entered as gsp antagonist = 6%; ClpP mod = -2.6%; Menin MLL FP FL = 13; D2 PAM = -17; TRPV1 PAM = 26; gsp agonist = 4%; Sfp inh = 9%

# Pulled by compound from above, three records:
15. COc1cc(Cl)c(C)cc1NC(=O)CN1CCN(C(=O)c2cccs2)CC1
14. OC(CNCC1CCCO1)COc1ccc(OCC(O)CNCC2CCCO2)cc1 (stereo unspecified)
18. CCOC(=O)C1(Cc2cccc(OC)c2)CCN(Cc2ccc(OC)c(OC)c2)CC1
compound no. | 15 | 14 | 18
gsp antagonist | nt | 6% | 12%
ClpP mod | 0.5% | -2.6% | nt
Menin MLL FP FL | nt | 13 | -3.1
D2 PAM | -31 | -17 | -13
TRPV1 PAM | nt | 26 | 3
gsp agonist | -79%[inhibitor] | 4% | -1%
Sfp inh | nt | 9% | -11%

# More structures:
19. Cc1ccc(C2c3c(oc4cc(C)c(C)cc4c3=O)C(=O)N2CCCN2CCOCC2)cc1 (stereo unspecified)
20. Cc1ccc(-c2nnn(CC(=O)N(c3ccccc3)C(C(=O)NC3CCCC3)c3ccncc3)n2)o1 (stereo unspecified)
21. O=C(NCC1CCCO1)c1cccc(S(=O)(=O)Nc2cccc(C(F)(F)F)c2)c1 (stereo unspecified)
22. COc1ccc(CCNC(=O)C2CCN(S(=O)(=O)c3ccc4c(c3)oc(=O)n4C)CC2)cc1OC
23. CSc1ccccc1NC(=O)CSc1nnc(COc2ccccc2)o1
24. NC(=O)c1sc2nc3c(c(-c4cccs4)c2c1N)CCCCC3
25. Cc1nn(CC(=O)Nc2ccccc2C(F)(F)F)c(=O)c2cccn12
compound no. | 19 | 20 | 21 | 22 | 23 | 24 | 25
gsp antagonist | -7% | -24% | 9% | -17% | 2% | -25% | 4%
ClpP mod | -1.8% | -0.8% | 1.6% | 0.5% | nt | -4.5% | -1.4%&0.8%
Menin MLL FP FL | 2.4 | nt | nt | 1.1 | -8.8 | -0.2 | -0.1
D2 PAM | -1 | -4 | -17 | 0 | -11 | -11 | -4
TRPV1 PAM | 22 | 6 | nt | -15 | -12 | 0 | 2
gsp agonist | -32%[inhibitor] | 23%[15.4 µM] | 1% | -4% | 6% | -1% | 3%
Sfp inh | -14% | 12% | nt | 2% | 9% | -11% | 13%
